From PubChem BioAssay
gsp ag = gsp mutant agonism. gsp mutant cells, cAMP HTRF, 30 min; control for the full effect not named in the record. hit rate 0.13% among 340,000. Potency, µM (doses to about 76.9 µM), inactives show at the highest dose activation (cAMP increase), usual class: activators; active = well fitted activation curve with a large enough effect; inconclusive = small, poorly fitted or top-dose-only effect, or another doubt; inactive = no such curve, though single readings can be large or run the other way; cell line not stated here;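 also: phosphodiesterase inhibitor Ro 20-1724 added with compounds to block cAMP breakdown; potency is read from the fitted curve at half-maximal effect; nearly all actives have a fitted effect of over 60% in size; about a fifth of the inactives were tested at one dose only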
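Cells in DMEM/10% FBS with G418 were pretreated with compounds in DMSO plus […] (300 uM stock) for 30 min at 37C. cAMP was measured by HTRF (cAMP-d2 plus anti-cAMP antibody-K) after 30 min at room temperature.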
gsp antag = gsp mutant antagonism; gsp-mutant cells, cAMP HTRF, 30 min; control for the full effect not named in the record; Potency, µM (doses to about 76.9 µM), for the others: at the top dose activity change, negative = inhibition, most hits filed as inhibitors; hit rate 0.4% among 340,000; AID 624288; active = falling curve of any shape with a large fitted effect; inconclusive = falling curve, mostly with a smaller effect; inactive = flat or rising curve; cell line not stated here;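 also: intracellular cAMP measured with PDE inhibitor Ro 20-1724 present during compound exposure; potency is read from the fitted curve at half-maximal effect; % is scaled to controls: 0 for no effect and ±100 for the full control effect; nearly all actives have a fitted effect of over 65% in size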
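HTRF cAMP measurement after 30 min RT detection following 30 min, 37C compound treatment alongside […] (added as 300 uM solution) in G418-selected cells seeded at 2000/well and grown 16–24 h.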
Menin MLL FP FL = inhibitors of human menin-MLL interaction, wild-type MLL peptide; FP activity change, % at 61.4 µM; 290,000 tested, under 10 active; AID 1766; Fluorescence polarization, fluorescein-MLL peptide displacement from menin; inconclusive = falling polarisation curve, or a change in total fluorescence; inactive = total fluorescence flat and polarisation flat or rising; no compound was filed as active; the % refers to the polarisation; negative = inhibition;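 also: % of control where 0% means no effect; inhibitors lower the polarisation; unlabelled MLL peptide was the positive control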
ClpP mod = qHTS Assay for Activators of ClpP | ATP-dependent Clp protease proteolytic subunit (Bacillus subtilis (strain 168)), P80244 | purified B. subtilis ClpP, FRET peptide cleavage, 20 min | Potency, µM (top dose mostly 57.5 µM), inactives show top-dose activity change, negative = active | hit rate 1.9% among 340,000; active = well fitted falling curve with a large enough effect; inconclusive = small, poorly fitted or top-dose-only effect; inactive = no such curve, though single readings can be large or run the other way; also: potency is read from the fitted curve at half-maximal effect; the source files actives as falling curves though it sought activators and does not explain the sign; nearly all actives have a fitted effect of over 65% in size; many hits overshoot -100%
Target sequence (P80244 whole entry, looked up): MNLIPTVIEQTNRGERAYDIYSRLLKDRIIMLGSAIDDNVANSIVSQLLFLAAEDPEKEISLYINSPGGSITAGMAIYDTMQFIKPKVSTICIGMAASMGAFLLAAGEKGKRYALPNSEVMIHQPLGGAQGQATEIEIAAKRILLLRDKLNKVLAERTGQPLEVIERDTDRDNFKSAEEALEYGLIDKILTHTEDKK
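Purified B. subtilis ClpP, 10 microg/mL final in Tris/HCl pH8 with KCl, BSA, glycerol and Tween-20, cleaved an Abz/nitrotyrosine-quenched decapeptide. Fluorescence (ex 320, em 430) was read at 0 and 20 min at room temperature. Delta was normalized to 5.8 microM ADEP and DMSO/no-enzyme controls.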
CtBP-E1A blk = inhibitors of CtBP/E1A interaction; AlphaScreen GST-E1A/His-CtBP binding, 1536-well; stronger effect = lower value; control for the full effect not named in the record; activity change, % (no concentration beside the values); hit rate 0.49% among 340,000; AID 651724; in the data active means activity change below about -65%; inconclusive means about -30% to -65%; inactive means above about -30%; also: % is scaled to controls: 0 for no effect and ±100 for the full control effect; compound concentration not given in the record
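Homogeneous bead-based format: GST-tagged E1A captured on glutathione donor beads, His-tagged CtBP on nickel acceptor beads; compounds precede bead addition by 2 h at 37 °C.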
TRPV1 potentiator = potentiators of human vanilloid receptor 1 (TRPV1). Q8NER1. TRPV1-expressing cells, Fluo-8 calcium influx, capsaicin EC20 potentiation; host cell line not named in the record; control for the full effect not named in the record. potentiation, % at 8.33 µM. hit rate 0.02% among 320,000. AID 540277; active means potentiation above 80%; inconclusive means 30% to 80%; inactive means below 30%; also: 0% is about no effect
Target sequence (Q8NER1 whole entry, looked up): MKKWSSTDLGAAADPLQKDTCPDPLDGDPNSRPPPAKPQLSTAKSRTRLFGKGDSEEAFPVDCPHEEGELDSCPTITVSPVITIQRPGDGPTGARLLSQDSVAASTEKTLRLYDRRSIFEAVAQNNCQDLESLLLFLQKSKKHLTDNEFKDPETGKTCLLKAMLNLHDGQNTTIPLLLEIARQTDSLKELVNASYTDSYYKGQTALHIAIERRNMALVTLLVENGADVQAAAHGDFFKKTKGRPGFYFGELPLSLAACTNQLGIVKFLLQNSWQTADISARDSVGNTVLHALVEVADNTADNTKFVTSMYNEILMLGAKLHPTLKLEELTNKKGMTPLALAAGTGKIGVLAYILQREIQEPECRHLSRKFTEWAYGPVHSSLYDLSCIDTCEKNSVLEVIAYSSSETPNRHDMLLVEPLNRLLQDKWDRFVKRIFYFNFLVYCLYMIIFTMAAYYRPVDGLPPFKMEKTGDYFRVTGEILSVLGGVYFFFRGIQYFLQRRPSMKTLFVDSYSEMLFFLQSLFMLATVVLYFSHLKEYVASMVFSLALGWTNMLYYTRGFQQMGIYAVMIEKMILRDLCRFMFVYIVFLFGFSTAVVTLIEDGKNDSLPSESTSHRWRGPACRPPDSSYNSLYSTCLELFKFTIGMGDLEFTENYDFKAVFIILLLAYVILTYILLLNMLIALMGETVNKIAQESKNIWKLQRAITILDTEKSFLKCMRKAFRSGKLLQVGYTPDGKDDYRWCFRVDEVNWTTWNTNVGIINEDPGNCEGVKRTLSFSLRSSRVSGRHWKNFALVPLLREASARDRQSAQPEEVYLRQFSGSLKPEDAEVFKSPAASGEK
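TRPV1-expressing cells were cultured overnight at 35.5C and loaded with Fluo-8 calcium dye for 40 to 90 min at room temperature. After a 10 s baseline, compound was added and calcium influx was read kinetically for 3 min (ex 480/em 520 nm).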
Sfp inh = Sfp phosphopantetheinyl transferase inhibition | Q9F4F7 | Biochemical Sfp PPTase activity, qHTS | Potency, µM, without a hit: max response, negative = inhibition, most hits filed as inhibitors | hit rate 3.5% among 310,000 | AID 1490; active = well fitted inhibition curve with a large enough effect; inconclusive = small, poorly fitted or top-dose-only effect, or another doubt; inactive = no such curve, though single readings can be large or run the other way;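 also: the enzyme is Sfp with the accession as filed and its product quenches rhodamine fluorescence; potency is read from the fitted curve at half-maximal effect; 0% = enzyme reaction without inhibitor and -100% = no enzyme wells; top concentration of the series not given in the record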
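Fluorescence-quenching assay: 15 nM Sfp-PPTase preincubated 15 min at room temperature with compound, then 5 uM rhodamine-CoA and 12.5 uM BHQ-2-labelled YbbR peptide added. Fluorescence (ex 525/em 598 nm) read at start and after 30 min; difference gives rate.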
Starred values were filed as active, the others as inactive; ? = inconclusive; · = no result given; & = joins results of further samples; [ ] = another dose, or the depositor's remark. An unsorted share of the library (roughly 5.3% active in at least one column).

SMILES | gsp ag | gsp antag | Menin MLL FP FL | ClpP mod | CtBP-E1A blk | TRPV1 potentiator | Sfp inh
COCn1c(COc2ccccc2)nc2ccccc21 | -15% | -1% | 0.1 | -7.7% | 2 | -2 | 18%
COc1cccc(C(C(=O)NC(C)(C)C)N(CCC(C)C)C(=O)CCC(=O)Nc2cc(C)on2)c1OC (configuration not stated) | -5% | -3% | 3.0 | · | 4 | 2 | 18%
Cc1c(C(=O)Nc2cccc(Cl)c2)c2ccccn2c1CCc1ccncc1 | -9%[15.4 µM] | 28µM* | 5.0 | · | -19 | 0 | -4%
O/N=C(/CCc1ccccc1)c1ccc2c(c1)OCCO2 | -16%[15.4 µM] | -5% | 2.0 | · | -5 | -2 | 3%
COc1ccc(-c2nnc(NC(=O)C3=COCCO3)o2)cc1 | -1% | -2% | 2.7 | ? | -19 | 11 | 4%
O=P(O)(O)COc1ccccc1P(=O)(c1ccccc1)c1ccccc1 | -10% | 7% | -0.4 | 1.4% | 3 | -6 | 9%
CCSc1nnc(NC(=O)Cc2cccc(OC)c2)s1 | -33%[inhibitor] | -4% | -2.0 | -1.5% | 6 | 3 | 14%
C=CCN1C(=O)c2ccc(C(=O)N3CCN(S(=O)(=O)c4cccc(F)c4)CC3)cc2C1=O | -16% | 4% | · | -4.4% | -2 | -11 | ·
O=C(N1CCCC1)C12CC3CCC(CC(C3)C1)C2 | 4%[15.4 µM] | · | -0.9 | · | 9 | -22 | 7%
COc1cccc(NC(=O)c2ccc3c(c2)CCCC3)c1 | -4% | -9% | 1.0 | 1.2% | · | -2 | -13%
COC(=O)CN(c1cc(C(F)(F)F)ccc1Cl)S(C)(=O)=O | -18% | -23% | -0.3 | 0.0% | 8 | -3 | 22%
O=c1cc(CNCCCO)c2ccccc2[nH]1 | -23% | 10% | ? | 0.6% | 1 | 13 | -1%
O=C(Nc1ccccc1)NC1CCN(Cc2ccccc2)CC1 | -14% | 8% | -1.2 | -0.4% | 5 | -15 | 12%
COC(=O)C1C(c2ccccc2)NC(=O)NC1(O)C(F)(F)Cl (configuration not stated) | 27% | 5% | -0.1 | · | 11 | -1 | 15%
CCCn1c(CN2CCN(C)CC2)nc2ccccc21 | 11% | 9% | 3.3 | 0.0% | -11 | 25 | -4%
CC(=O)N/C(=N/c1nc(C)cc(C)n1)Nc1ccc(F)cc1F | 0%[15.4 µM] | 7% | -8.1 | 1.4% | 4 | -10 | 6%
Cc1noc(C)c1COc1ccc(C(=O)NCCc2ccccn2)cc1 | -1% | 5% | -1.8 | -0.2% | 9 | -3 | 14%
CNC(=O)CSc1nnc(C2CC2)n1-c1ccccc1 | 4%[15.4 µM] | 6% | 1.1 | 0.9% | -15 | -3 | 8%
Nn1c(=O)c2ccccc2n2c(SCc3ccccc3)nnc12 | 3% | -7% | 2.0 | 2.2% | -10 | 3 | 12%
O=C(OCc1nnc(-c2ccccc2)o1)c1cc(S(=O)(=O)N2CCOCC2)c(Cl)cc1Cl | 6% | -16% | 6.4 | -2.3% | -5 | 9 | 2%
Cc1ccc(S(=O)(=O)N2CCOCC2)cc1NCC(=O)Nc1ccc(OC(F)(F)F)cc1 | -5% | 6% | · | -13% | -2 | · | ·
[O-]/[N+](=C\c1ccc(F)cc1)c1ccccc1 | 4% | 2% | 2.6 | -1.0% | 7 | 17 | -18%
CC1=C(C(=O)OCC2CCCO2)C(c2ccccc2)NC(=O)N1 (configuration not stated) | 4% | 4% | -0.1 | -6.1% | 2 | 12 | 6%
O=C(CNC(=O)c1cccnc1)N/N=C/c1ccc(O)cc1O | 19%[15.4 µM] | -4% | -11 | · | -86* | -7 | 13%
CN1CCCC(OC(=O)c2ccc(S(=O)(=O)N(C)C)cc2)C1 (configuration not stated) | -19% | 9% | -13 | -2.0% | · | -11 | -3%
CC(C)(C)C(=O)OCOC(=O)[C@@H]1N2C(=O)[C@@H](N=CN3CCCCCC3)[C@H]2SC1(C)C | · | 18% | -2.2[24.8 µM] | -19% | 1 | -9 | 17%
CC1CCN(S(=O)(=O)c2ccc(Cl)cc2Br)CC1 | 27% | -29% | -3.8 | -2.7% | 20 | -11 | -7%
O=C(COc1cccnc1[N+](=O)[O-])c1ccc(Cl)s1 | 14%[15.4 µM] | -10% | 5.4 | · | -16 | · | 2µM*
CCOc1ccc(CN2CCN(CCCc3ccccc3)CC2CCO)cc1 (configuration not stated) | -3% | -11% | -5.0 | -1.5% | -14 | 3 | -1%
COc1ccc(C(=O)O/N=C(\N)Cc2ccc([N+](=O)[O-])cc2)c(OC)c1 | 6%[15.4 µM] | -3% | -4.4 | · | -5 | 7 | 7%
Cc1ccc(CCNC(=O)C2CCN(S(=O)(=O)c3cccc4nonc34)CC2)cc1 | 5% | 4% | 2.2 | -13% | -16 | -6 | 14%
N#Cc1ccccc1NC(=O)CN1C(=O)NC(Cc2c[nH]c3ccccc23)C1=O (configuration not stated) | 14% | 9% | · | 6.0% | -6 | -11 | ·
O=C(Nc1ccc(N2CCOCC2)cc1)c1cc(-n2cnnc2)ccc1Cl | 0% | -5% | · | -0.5% | 19 | 4 | 5%
CCOC(=O)c1sc(NC(=O)CSc2n[nH]c(CC)n2)nc1C | -5%[15.4 µM] | · | 0.1 | · | -8 | 3 | -10%
CC1(C)OC(=O)C(=Cc2ccc[nH]2)C(=O)O1 | -1%[15.4 µM] | -2% | 3.7 | -0.4% | -11 | -3 | 12%
CCCCSc1cnn(-c2ccccc2)c(=O)c1SCCCC | ? | ? | -0.2 | -2.7% | 34 | 0 | -16%
O=C(NC1CCCCC1)C(c1cccnc1)N(C(=O)CCl)c1ccccc1Cl (configuration not stated) | 0%[15.4 µM] | -11% | -0.2 | 1.6% | -14 | 26 | 16%
O=C1CCC[C@@H]2C[C@@]3(C[C@@H]4CCN1[C@H]24)Nc1cc([N+](=O)[O-])ccc1NC3=NC1CCCCC1 | · | ? | · | -0.1%&1.2% | -1 | · | ·
O=C(NCc1nnc(SCC(=O)N2CCC(Cc3ccccc3)CC2)o1)c1ccco1 | 2%[15.4 µM] | -3% | 7.6 | -3.3% | 5 | -11 | -7%
CCCn1c2ccccc2c2cnn(CC(=O)NCCN(CC)CC)c(=O)c21 | -1%[15.4 µM] | 11% | 9.1 | 0.1%&5.1% | 0 | 6 | 6%
O=C(CSCc1ccccc1)Nc1ccc2c(c1)C(=O)NC2=O | ? | 14% | -0.9 | · | -5 | -11 | 3%
CN1CCN(c2ccc(C(F)(F)F)cc2NC(=O)Nc2ccccc2)CC1 | -6% | 7% | -5.2 | 0.2% | · | 11 | -16%
Cc1ccc(C(=O)Nc2ncc(C)s2)o1 | -1% | 7% | 2.4 | -0.6% | 0 | -12 | -1%
CCOC(=O)C1=CN(Cc2cccc(F)c2)S(=O)(=O)N(CC)C1c1cccc(OC)c1 (configuration not stated) | · | 0% | · | -1.8% | 7 | · | ·
CC1(C)COC(c2cccn2Cc2ccc(F)cc2Cl)=N1 | 2% | 18% | 2.2 | 1.5% | 0 | 5 | 8%
Cn1c(=O)n(C)c2cc(/C=N/NC(=O)c3cc4cc(Br)ccc4o3)ccc21 | -13%[15.4 µM] | ? | 3.2 | -0.2% | 0 | -11 | -4%
Cc1nc(C(=O)NCC(=O)c2ccccc2)c(C(F)(F)F)o1 | ? | 2% | -1.1 | · | 11 | -3 | 12%
COCCCNC(=S)Nc1ccc(C)cc1 | -5% | 11% | 3.5 | 0.9% | · | -19 | 10%
CC1CN(C(=O)Nc2cccc(C(F)(F)F)c2)CC(C)O1 (configuration not stated) | 4%[15.4 µM] | 5% | -0.9 | · | 2 | -21 | 1%
Cn1cnc([N+](=O)[O-])c1S(=O)(=O)c1cccc(Cl)c1 | -35%[inhibitor] | -13% | · | 1.5% | 1 | 0 | -27%
COc1ccc(/C=C(\C#N)C(=O)Nc2cccc(C)n2)cc1 | -9%[15.4 µM] | 5% | -2.3 | -0.1% | 13 | -1 | -3%
CCOC(=O)N1CCN(C(=O)c2cccc(NC3=NC4CS(=O)(=O)CC4S3)c2)CC1 (configuration not stated) | 1% | 6% | 1.8 | -3.7% | -4 | -23 | 18%
O=C(COC(=O)C1CCC(=O)N1)Nc1ccc(Br)cc1 (configuration not stated) | 5%[15.4 µM] | -7% | 2.3 | · | 7 | 6 | 13%
Cc1ccc(C(=O)N2CCN(c3ccc(Cl)cc3)CC2)cc1 | 4% | 1% | -0.6 | -0.9% | -5 | -20 | 8%
C=CCCC(=O)N1CCC(n2nccc2NC(=O)c2ccc(OC)cc2)CC1 | 22% | 13% | · | · | -9 | ? | 22%
CC1CCc2nc(NCCO)nc(C(F)(F)F)c2C1 (configuration not stated) | 24% | 11% | 1.7 | -6.5% | 22 | -2 | 1%

Additional entries follow.
SMILES | gsp ag | gsp antag | Menin MLL FP FL | ClpP mod | CtBP-E1A blk | TRPV1 potentiator | Sfp inh
O=C(N/N=C/c1cccnc1)/C(=C\c1cccs1)NC(=O)c1ccccc1 | -51%[inhibitor] | 7% | -0.4 | 0.2% | 1 | 3 | 10%
CCOc1cccc(C2C(C(=O)c3ccc(C)o3)=C(O)C(=O)N2CCCn2ccnc2)c1 (configuration not stated) | 43%[15.4 µM] | 21% | · | · | 4 | 3 | ·
CCCN(CC(=O)Nc1ccccc1OC)C(=O)CSc1nc(C)cc(C)n1 | -6%[15.4 µM] | -2% | · | · | -1 | 1 | ·
Cc1cc(N2C(=O)C3C4CC(C(Br)C4Br)C3C2=O)no1 (configuration not stated) | 1%[15.4 µM] | 13% | -0.5 | ? | 1 | 1 | 1%
Cn1c(SCC(=O)N2CCc3ccccc32)nnc1C1CC1 | 8% | 9% | 1.0 | 0.5% | 2 | 3 | 12%
CCC(c1nnnn1CCOC)N1CCN(Cc2ccccc2OC)CC1 (configuration not stated) | -1% | 14% | -0.9 | -15% | 4 | -12 | 5%
